MgcRacGAP – MgcRacGAP inhibitors via phosphate release, confirmation, orthogonal assay, biochemical, inorganic phosphate detection, Rac1 (AID 652142); MgcRacGAP/Rac1F28L GTP hydrolysis, Biomol green phosphate; active compounds read high; test concentration not given here; none was called active though about 1 in 100 pass the limit; inhibition, %; 2,400 tested, under 10 active;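 active means inhibition over three standard deviations or about 65%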;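 further: full inhibition control lacks the GAP enzyme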
The depositor's hits bear a star. An excerpt; rates above refer to the full screens.

SMILES	MgcRacGAP
Cc1ccc(S(=O)(=O)Oc2ccc(/C=C3/C(=N)N4C(=NC3=O)SN=C4S(C)(=O)=O)cc2)cc1	21
O=C(CNC1CCCCCC1)Nc1ccccc1N1CCOCC1	20
O=C(Nc1ccc(N2CCCCC2)cc1)c1ccccc1	15
Cn1c(N2CCOCC2)c(/C=N/O)c2ccccc21	22
O=c1c2sc3ccccc3c2[nH]c(=S)n1CCN1CCOCC1	73
CCN(c1ccccc1)S(=O)(=O)c1ccc(Cl)c(NC(=O)CN(C)C2CCN(C)CC2)c1	29
CN1C=CC(=CC=C2C=CC(=O)C=C2)C=C1	23
COc1ccc(OC)c2c(C)c(C)[nH]c12	5
COc1ccccc1N=NNc1ccccc1OC	29
COc1cc(/C=N/Nc2nc3ccccc3[nH]2)ccc1O	12
C/C(=N/NC(=O)CSc1nc2ccccc2n1C)c1ccc(O)cc1	21
COC1=C(Nc2ccc(O)cc2)C(=O)c2ccccc2C1=O	35
CC1(C)OC(=O)C(=NNc2ccc(O)cc2)C(=O)O1	21
COc1cc(/C=C(\C#N)c2nc3ccccc3[nH]2)cc(OC)c1O	22
O=S(=O)(c1ccccc1)N1N=C(c2ccc(O)cc2)CC1c1ccco1 (stereo not given)	25
CCOC(=O)/C(C#N)=C1\C(=O)N(Cc2ccccc2)c2ccccc21	33
CCOc1ccc(C(=O)NC(=S)Nc2ccc(N3CCCCC3)cc2)cc1[N+](=O)[O-]	36
COc1cc(C2NC(=O)C(C#N)=C(S)N2c2ccc(C)cc2)ccc1OC(C)C (stereo not given)	39
COc1cccc(CN2CCN(Cc3cccc(Oc4ccccc4)c3)CC2)c1OC	22
CC(C)N(c1ccccc1)c1ccc(NC(=S)NCCN(C)C)cc1	25
Cc1[nH]c2ccccc2c1/C=N/Nc1nncn1N	7
O=S(=O)(O)c1cc(O)c2cc(Nc3ccccc3)ccc2c1	30
CN1C(=O)C2C(c3ccc(N(C)C)cc3)=NN(Cc3ccccc3)C2C1=O (stereo not given)	13
COc1cc(/C=N/NC(=O)c2cc[n+]([O-])cc2)ccc1O	12
CCOc1cc(CN2CCN(C(=O)CC(C)C)CC2)ccc1OC	30
OCCNCCSc1nc(C2CCCCC2)n(-c2ccccc2Cl)n1	24
COc1ccc(C(=O)N/N=C/c2ccc(N3CCOCC3)s2)cc1OC	18
O=C(Nc1ccccn1)c1ccc2ccccc2c1O	24
Clc1nssc1=Nc1ccc(Br)cc1	21
COc1ccc(N2CCN(C(=O)NC3CCCCC3)CC2)cc1	8

3 compounds drawn at random from the list so far:
SMILES	MgcRacGAP
OCCNCCSc1nc(C2CCCCC2)n(-c2ccccc2Cl)n1	24
CCN(c1ccccc1)S(=O)(=O)c1ccc(Cl)c(NC(=O)CN(C)C2CCN(C)CC2)c1	29
Clc1nssc1=Nc1ccc(Br)cc1	21

Arranged by number of heavy atoms (smallest number first): six of the compounds above.
SMILES	MgcRacGAP
Clc1nssc1=Nc1ccc(Br)cc1	21
COc1ccc(OC)c2c(C)c(C)[nH]c12	5
O=S(=O)(O)c1cc(O)c2cc(Nc3ccccc3)ccc2c1	30
O=c1c2sc3ccccc3c2[nH]c(=S)n1CCN1CCOCC1	73
CCOc1cc(CN2CCN(C(=O)CC(C)C)CC2)ccc1OC	30
CC(C)N(c1ccccc1)c1ccc(NC(=S)NCCN(C)C)cc1	25

Five compounds from above, arranged by their value in MgcRacGAP, largest number first.
| smiles | MgcRacGAP |
| --- | --- |
| COc1ccccc1N=NNc1ccccc1OC | 29 |
| O=C(Nc1ccccn1)c1ccc2ccccc2c1O | 24 |
| C/C(=N/NC(=O)CSc1nc2ccccc2n1C)c1ccc(O)cc1 | 21 |
| O=C(CNC1CCCCCC1)Nc1ccccc1N1CCOCC1 | 20 |
| CN1C(=O)C2C(c3ccc(N(C)C)cc3)=NN(Cc3ccccc3)C2C1=O (stereo not given) | 13 |

Returning to the listing, starting 4 compounds before the break.
SMILES	MgcRacGAP
COc1ccc(C(=O)N/N=C/c2ccc(N3CCOCC3)s2)cc1OC	18
O=C(Nc1ccccn1)c1ccc2ccccc2c1O	24
Clc1nssc1=Nc1ccc(Br)cc1	21
COc1ccc(N2CCN(C(=O)NC3CCCCC3)CC2)cc1	8
COc1cc(CN2CCC(C(=O)N3CCN(c4ccccc4F)CC3)CC2)ccc1O	22
Oc1ccc(Cl)cc1C=Nc1ccc2c3c(cccc13)CC2	30
Cc1ccc2nc(/C(C#N)=C/c3ccc(O)c(O)c3)[nH]c2c1	33
O=C1/C(=C\c2ccc(O)cc2)SC(=S)N1/N=C/c1ccc(O)cc1	13
CC(=O)Nc1ccc(N=Nc2ccc(O)cc2)cc1	28
O=S(=O)(O)c1cc(O)c2ccc(Nc3ccccc3)cc2c1	38
Cc1ccc[n+](CC(=O)Nc2ccc(N(C)C)cc2)c1	7
O=C(O)C1CCCCC1C(=O)Nc1ccc(S(=O)(=O)N2CCOCC2)cc1 (stereo not given)	25
CCc1ccc2nc3sc(C(=O)O)cc3cc2c1	29
O=C(CN1CCN(c2ccc(O)cc2)CC1)NCC(=O)Nc1ccc(F)c(F)c1F	25
c1ccc(Nc2cc(Nc3ccccc3)[nH]n2)cc1	32
COc1cccc2c1C(=O)c1c(O)c3c(c(O)c1C2=O)C[C@@](O)(C(=O)CO)C[C@@H]3OC1CC(N)C(O)C(C)O1 (stereo not given in full)	26
Cn1c(=O)[nH]c(=O)c2c1[nH]c(=S)n2Cc1ccc(Cl)cc1	30
COc1ccc2c(-c3ccccc3)cc(N3CCOCC3)nc2c1	37
CCN(CC)CCC(=O)N1C/C(=C/c2ccccc2)C(=O)/C(=C\c2ccccc2)C1	31
CN1C(=O)/C(=C/C=C2\SCCN2C)N(C)C1=S	25
O=S(=O)(O)c1cc(Cl)cc(N=Nc2ccc(O)cc2O)c1O	11
Cc1cccc(N2C(=O)/C(=C\c3ccc(C(=O)O)cc3)c3ccccc3C2=O)c1	34
Oc1ccc(N=Cc2cc(Br)c(N3CCOCC3)o2)cc1	34
COc1ccc(C=Nc2ccc3[nH]ncc3c2)c(O)c1	11
C/C(CC(=O)Nc1ccc(N(C)C)cc1)=N\NC(=O)c1ccncc1	27
C[n+]1c(-c2ccc(C=NNC(=O)c3ccc(C(=O)NN=Cc4ccc(-c5cn6ccccc6[n+]5C)cc4)cc3)cc2)cn2ccccc21	69
CCOc1ccc(C2NC(=O)C(C#N)=C(S)N2c2ccc(OC)cc2)cc1OC (stereo not given)	27
Cc1cccn2c(=S)[nH]nc12	29
COc1cc(CNc2ncc(-c3ccc(Br)cc3)n2C)cc(OC)c1O	24
Cc1ccccc1N1C(S)=C(C#N)C(=O)NC1c1cccs1 (stereo not given)	7
O=C1C(=Cc2ccco2)CCC1=Cc1ccco1	96
Cn1c(=O)c2ccccc2n2c(=S)[nH]nc12	35
COc1cc2c(CCNC(C)=O)c[nH]c2cc1O	1
O=C(Nc1ccccc1C(=O)N/N=C/c1ccc(O)cc1)c1ccccc1	26
Cc1ccc(/C(N)=N/OC(=O)N2c3ccccc3Sc3ccccc32)cc1	24
CCOC(=O)COc1ccc2c(c1)C(=O)CC1(CCCCC1)O2	25
COc1cc(/C=N/NC(=O)c2cc(-c3ccccc3OC(C)C)nc3ccccc23)ccc1O	23
COc1cc(/C=N/NC(=O)c2ccccc2)ccc1O	25
COc1ccc(N2C(=O)/C(=C/N(C)C)NC2=S)cc1	12
CCS(=O)(=O)c1ccc2oc(=O)c(/C=C(\O)c3ccc(Cl)cc3)nc2c1	22
COc1cc(/C=N/NC(=O)CN(Cc2ccco2)S(=O)(=O)c2ccccc2)ccc1O	23

Screening results: PubChem, Molecular Libraries Program, Specialized Chemistry Center, University of Kansas
